# fixLJ activator – activators of Burkholderia fixLJ two-component system. B. multivorans fixK-promoter GFP reporter, 18 h; stronger effect = higher value. z-score (test concentration not listed). 29,000 tested, 0.3% active;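 active = replicate mean overnight rise in green fluorescent reporter signal, 3 or more SD over negative controls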;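 note: score is relative to vehicle wells of the plate; 300 nL library stock went into each well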
# Starred values were filed as active, the others as inactive; & = joins results of further samples. This is a subset (hit frequency here may not be typical).
SMILES,fixLJ activator
C[N+](C)(CCOc1ccccc1)Cc1ccccc1,-2.8
COc1ccc(-n2c(-c3ccc(C)cc3)cc3c2CC(C)(C)CC3=O)c(OC)c1,0.56
CCCN1CCCC(CNS(=O)(=O)c2cc(-c3cc(C(F)(F)F)on3)oc2C)C1 (stereo not given),-1.5
Fc1ccccc1OCc1nc(-c2ccc(-n3cccc3)cc2)no1,-1.1
COc1cc(OC)c(NC(=O)CSc2cc(=O)n(C)c3ccc(Cl)cc23)cc1Cl,-1.2
Cc1nn(C)c(NC(=O)NCc2nccn2C(C)C)c1-c1ccccc1,-0.07
CN(C(=O)Cn1nnc(-c2ccc(S(C)(=O)=O)cc2)n1)c1ccccc1,-0.7
COc1cccc(-c2cc(C(=O)Nc3ccn(Cc4ccc(C)cc4)n3)no2)c1,0.52
CCOc1cccc(C(=O)NCC2CCCN(C(=O)C3=NNC(=O)CC3)C2)c1 (stereo not given),1.6
O=C(NCCc1nc2ccccc2n1Cc1ccc(Cl)cc1Cl)c1ccco1,-1
Cc1ccc(Nc2nn3c(=O)c4cc5c(cc4nc3s2)OCO5)cc1Cl,-1.4
Cc1ccc(Cn2c(C)c(CNCc3ccccc3F)c(C(=O)O)c2C)cc1,-0.9
CC(C)c1nnc(N2C(=O)c3oc4ccccc4c(=O)c3C2c2ccccc2F)s1 (stereo not given),-1.2
CC(C)CCN1CC2(CCCN(C(=O)c3ccnn3C)C2)CCC1=O (stereo not given),-0.22
Cc1cc(C)cc(NC(=O)C(Cc2ccccc2)NS(=O)(=O)c2ccc3c(c2)CCC(=O)N3)c1 (stereo not given),-1.4
CCC(Sc1nc2ccncc2[nH]1)C(=O)Nc1cc(C)ccc1C (stereo not given),-0.1
O=C(Cn1c(=O)oc2cc(S(=O)(=O)N3CCCCC3)ccc21)NCc1ccc(F)cc1,-0.17
CCOc1c(Cl)cc(Cl)cc1CNCCSc1nnnn1C,-1.3
Cc1cc(C)c(NC(=O)Nc2ccc3snnc3c2)c(C)c1,-2.9
COc1ccc(N(C)C(=O)Cn2cnc3sc(C)c(S(=O)(=O)N4CCN(c5ncccn5)CC4)c3c2=O)cc1,-0.42
CCOC(=O)c1c(NC(=O)COc2ccc(OC)cc2)sc(C(=O)N(CC)CC)c1C,-1.5
COc1ccc(Cl)cc1C(=O)Nc1sc2c(c1C(=O)OC(C)C)CCCC2,-0.34
CCCCCn1c(=O)[nH]c2cc(C(=O)Nc3ccc(F)c(F)c3)ccc2c1=O,-0.75
O=C(CCCn1c(=O)c2sccc2n(Cc2ccc(Cl)cc2)c1=O)NCc1ccc2c(c1)OCO2,-2.4
COc1ccc(N2CCN(c3cc(C)nc4nncn34)CC2)cc1,-1.6
CC(C)c1cc(C(=O)NCCn2cncn2)c(O)c(C(C)C)c1,-0.17
CSCc1noc(CNC(=O)CC2C(=O)NCCN2C(C)C)n1 (stereo not given),-0.78
CCc1nn(C)c(Cl)c1CN1CCCC(CNC(C)=O)C1 (stereo not given),-2.3
O=C(COc1ccccc1)Nc1ccc(OCc2cc(=O)n3ccsc3n2)cc1,-0.6
CC(CN(C)C)CN1c2ccccc2CCc2ccccc21 (stereo not given),0.21

# Structural class: those above with an aryl thioether with sulfur outside any ring (3)
SMILES,fixLJ activator
COc1cc(OC)c(NC(=O)CSc2cc(=O)n(C)c3ccc(Cl)cc23)cc1Cl,-1.2
CCC(Sc1nc2ccncc2[nH]1)C(=O)Nc1cc(C)ccc1C (stereo not given),-0.1
CCOc1c(Cl)cc(Cl)cc1CNCCSc1nnnn1C,-1.3

# (listing goes on)
SMILES,fixLJ activator
CC(=O)c1ccc(N2CCN(C(=O)Nc3ccc(C(C)C)cc3)CC2)cc1,-1.9
CCOc1ccccc1C(=O)N1CC(=O)Nc2ccc(C)cc2C1c1ccccc1 (stereo not given),1
Cc1ccc2c(=O)cc(C(=O)Nc3c(C(=O)c4ccccc4)oc4ccccc34)oc2c1C,-0.55
COc1ccc(C(NC(=O)CCSC)C2CC(O)C2)cc1F (stereo not given),-1.8
CCn1nccc1C(=O)N1CCC2(CC1)CN(CCC(C)C)C(=O)O2,0.25
COCCNC(=O)CSc1nc(-c2cc(OC)c(OC)c(OC)c2)[nH]c1-c1ccc(Cl)cc1,-1
CC(Sc1cn(CCNC(=O)c2ccccc2F)c2ccccc12)c1ccccc1 (stereo not given),1.3
O=C(C1CC12CCNCC2)N1CCC2(CC1)OCCc1c2[nH]c2ccccc12 (stereo not given),0.27
COc1ccc(C(=O)N(Cc2cocn2)Cc2cocn2)c2ccccc12,-0.49
Cc1cc(C)cc(NC(=O)CSCn2nnc3c(=O)[nH]c(Cc4ccc(F)cc4)nc32)c1,-2.8
COc1ccc(NC(=O)C2CCCN(c3cnccn3)C2)c(OC)c1 (stereo not given),1.4
Cc1ccc2nc(-c3ccc(NC(=O)COc4ccc(Cl)c(C)c4)cc3)sc2c1,-1.1
Cc1c(NC(=O)c2ccc(N3CCC(C)CC3)c([N+](=O)[O-])c2)cccc1-c1nc2ccccc2o1,0.33
O=C(NC1COCC1Cc1ccncc1)c1ccc(-c2cccc(F)c2)cc1 (stereo not given),-1.8
CCCCn1c(=O)c2c(ncn2CC(C)=O)n(CCCC)c1=O,-0.85

# Continued, overlapping the part above by 2 compounds.
SMILES,fixLJ activator
O=C(NC1COCC1Cc1ccncc1)c1ccc(-c2cccc(F)c2)cc1 (stereo not given),-1.8
CCCCn1c(=O)c2c(ncn2CC(C)=O)n(CCCC)c1=O,-0.85
CCC(O)c1nc2ccccc2n1CCOc1cc(C)cc(C)c1 (stereo not given),-0.87
CC(=O)N1CCC(C(=O)NC2COCC2Cc2ccncc2)CC1 (stereo not given),0.12
COc1ccc(S(=O)(=O)N2CCC(C(=O)NC(C)c3ccccc3)CC2)cc1 (stereo not given),-2.6
CCc1ccc(C(=O)c2cn(CC(=O)Nc3ccc4c(c3)OCO4)c3cc(OC)c(OC)cc3c2=O)cc1,-1.3
Cc1sc2ncn(CC(=O)N(C)c3ccc(Br)cc3)c(=O)c2c1S(=O)(=O)N1CCC(C)CC1,-1.6
Cn1c(C(=O)N2CCC(C(=O)NCCc3ccc(S(N)(=O)=O)cc3)CC2)cc2sccc21,0.66
COC(=O)c1cc(NC(=O)CC2C(=O)OCCN2Cc2ccccc2)cc(C(=O)OC)c1 (stereo not given),-0.09
NC(=O)c1cccnc1,-1.7&-0.72
CC(=O)c1cccc(NC(=O)C2CCN(C(=O)c3cnn(-c4ccccc4)c3-n3cccc3)CC2)c1,0.95
CN(C)S(=O)(=O)CC1COCC1NC(=O)C1(c2ccccc2)CCCCC1 (stereo not given),-0.27
Cc1cccc(CN2CCOC3(CCN(Cc4cncnc4)CC3)CC2=O)c1,0.98
Cc1ccc(C(C)C)c(OCC(=O)Nc2ccc(C(=O)OC3CCCCC3)cc2)c1,-0.48
Cc1ccc(C)c(Cn2nnc(C(=O)NCc3ccccc3)c2N)c1,-0.42
Cc1cccc(C(=O)NCc2cc3n(n2)CCCN(S(C)(=O)=O)C3)c1,-0.31
O=C(NCc1cccnc1)c1nn(-c2ccc(F)cc2)nc1CO,2.6
CCc1nn(C)c(NC(=O)NC2CCN(c3ccc(F)cc3)CC2)c1C,-0.49
COc1cc(NC(=O)c2cc3cc4ccc(C)cc4nc3o2)cc(OC)c1OC,-1.6
COc1ccc(NC(=O)Cn2cnc3sc(C)c(S(=O)(=O)N4CCN(C)CC4)c3c2=O)cc1Cl,1.6
CCCN(C(=O)CCc1nc(-c2ccccc2F)no1)c1ccc(CC)cc1,1.4
COc1ccc(-c2cc(C(=O)N3CCN(c4ccc(F)cc4)CC3)no2)cc1OC,-0.8
Cc1ccc(Nc2c(-c3ccccc3O)nc3ccc(Br)cn23)cc1,-1.6
N=C(N)N1CCc2ccccc2C1,-0.14
O=C(Nc1ccc(NC(=O)c2cccs2)cc1)c1ccc(Cl)cc1,-0.89
Cc1ccc(C(=O)N2CC(=O)Nc3ccc(Br)cc3C2c2ccc(F)cc2)cc1C (stereo not given),1.8
Cc1[nH]nc(C(F)(F)F)c1-c1ccc(C(=O)N2CCC(O)(CO)C2)cc1 (stereo not given),-3.2
Cc1[nH]ncc1CN(C)Cc1cc(=O)c2cccc(Cl)c2[nH]1,0.46
CCOc1cc(S(=O)(=O)N2CCC[C@]3(CCCC3OC)C2)ccc1Cl (stereo not given in full),2.6
Cn1c(=O)c2c(nc(N3CCOCC3)n2Cc2ccc(Br)cc2)n(C)c1=O,-1.9
Cc1ccc2oc(N3CCN(Cc4cc(C(C)C)no4)CC3)nc2c1,-0.93
COc1ccccc1-c1cc2nc(C)c(CCC(=O)NCCc3ccc(SC)cc3)c(C)n2n1,0.71
COc1cccc(CNC(=O)C2CCC(CNS(=O)(=O)c3cccs3)CC2)c1 (stereo not given),-0.11
Cc1oc(-c2ccccc2F)nc1Cn1c(SCc2cccc(Cl)c2)nc2ccncc21,-2.3
COc1ccc(-n2nc(C(=O)Nc3cccc(C)n3)c3c4ccccc4n(C)c3c2=O)cc1Cl,-0.8
CCCCNC(=O)CSc1nc(-c2ccc(OC)cc2)cc(C(F)(F)F)n1,-0.36
CCOc1ccc(NC(=O)c2cc(=O)c3ccc(C)c(C)c3o2)cc1,-1
CCS(=O)(=O)N1CCC(CNC(=O)c2cnc3ccccn3c2=O)CC1,-1.1
CCCn1c(=N)c(C(=O)NC2CCCC2)cc2c(=O)n3cccc(C)c3nc21,-0.38
O=C(NCc1ccc2c(c1)CCCO2)C(c1ccccc1)n1cnnn1 (stereo not given),-1.4
Cc1ccc2c(CN3CCN(C(=O)c4ccc(Br)cc4)CC3)cc(=O)oc2c1,-1.1
CCOC(=O)c1ccc(NC(=O)c2c(NC(C)=O)sc3c2CCC(C)C3)cc1 (stereo not given),-0.44
Cc1ccc(-c2nnc3c4ccccc4c(C)nn23)cc1NC(=O)c1ccccc1Cl,-1
CC(=O)N1CCc2nc3sc(C(=O)c4ccc(F)cc4)c(N)c3c(C(F)(F)F)c2C1,0.72
CCOC(=O)c1oc2ccc(S(=O)(=O)n3nc(-c4cc(OC)c(OC)c(OC)c4)cc3N)cc2c1C,-1.4
O=C1CN(C(=O)COc2ccc(Cl)cc2Cl)C(c2ccc(F)cc2)c2cc(F)ccc2N1 (stereo not given),-1.3
C=CCc1cc(-c2nccn2Cc2cccnc2)cc(OC)c1O,-1.4
Cc1ccc(NC(=O)N2CCc3cc(S(=O)(=O)N4CCC(C)CC4)ccc32)cc1C,-0.68
Cc1cccc(CN2CCN(CC(=O)NCc3ccc(Cl)cc3)C2=O)c1,-1.4
COc1ccc(C2c3c(-c4ccccc4O)n[nH]c3C(=O)N2CCc2ccccc2)cc1 (stereo not given),0.04
Cc1ccc2c(=O)cc(C(=O)Nc3nnc(CC(C)C)s3)oc2c1C,-2.5
CCC1CN(C(=O)Nc2ccc(C(=O)O)cc2)c2cc(Cl)ccc2O1 (stereo not given),-1.6
Fc1ccc(C(NCCc2ccc(Cl)cc2)c2nnc(-c3ccccc3Cl)o2)cc1 (stereo not given),0.12
Cc1cc(Cl)ccc1NC(=O)CN(c1ccccc1Br)S(C)(=O)=O,-1.7
O=C(O)c1cccc(-c2nc3c([nH]2)CN(C(=O)C2CCCN2)CC3)c1 (stereo not given),0.23
CCCN(C(=O)c1nn(-c2ccc(OC)cc2)c(=O)c2c1c1ccccc1n2C)c1ccc(CC)cc1,-0.48
CC(C)Cc1cc(C(=O)NC(C)c2cn3ncsc3n2)nc(=O)[nH]1 (stereo not given),-0.55
O=C(NCC1CCOC1)c1cc(COc2cccc3cnccc23)on1 (stereo not given),-1.6
COc1ccc(C(=O)c2cnc3ccc(C)cc3c2S(=O)(=O)c2ccccc2)cc1,-1.9
CCOC(=O)C1CCN(C(=O)Cn2nc(C)n3c(cc4cc(C)ccc43)c2=O)CC1,-1.4
CCOC(=O)c1sc2ncn(CC(=O)Nc3ccc(N(C)C)cc3)c(=O)c2c1C,-1
COc1cc(NC(=O)c2cc(-c3cccc(Cl)c3)on2)c(OC)cc1Cl,0.24
# Next part.
SMILES,fixLJ activator
CCOC(=O)c1sc(NC(=O)C(C)Sc2nc(-c3ccccc3)cc(C(F)(F)F)n2)c(C(=O)OC)c1C (stereo not given),-0.23
Cn1nc(CNC(=O)c2cc3n(n2)CC(O)CNC3=O)c2c(Cl)cccc21 (stereo not given),0.72
COc1ccccc1CCNC(=O)Cc1c(C)c2cc3c(C(C)(C)C)coc3c(C)c2oc1=O,1.5
CCc1ccc2oc(C(=O)Nc3sc4c(c3C(=O)NC)CCCC4)cc(=O)c2c1,-1.1
CCC(=O)N1CCc2cc(Br)cc(S(=O)(=O)N3CCCC(C(=O)Nc4cccc(Cl)c4C)C3)c21 (stereo not given),-1.1
Cc1ccc(C(C)C)c(OCc2ccc(C(=O)Nc3ccc(S(N)(=O)=O)cc3C)o2)c1,-2.7
CCCNC(=O)CCNS(=O)(=O)c1ccc2c(c1)c(=O)n(C)c(=O)n2C,-0.7
CCN(CCCNC(=O)c1cc2cc3ccc(OC)cc3nc2s1)c1cccc(C)c1,-0.58
Clc1ccc(-c2nnn3c2nc(NCc2ccc4c(c2)OCO4)c2ccccc23)cc1,-0.71
CCC(=O)NCC(=O)NC1COCC1Cc1ccnc2ccccc12 (stereo not given),-1.9
CCOc1ccc(-c2csc(-c3c(N)c(C(=O)c4ccc5c(c4)OCO5)n4ccccc34)n2)cc1,1.1

# Reprinted at random: four compounds from above
SMILES,fixLJ activator
Cc1ccc(C(C)C)c(OCc2ccc(C(=O)Nc3ccc(S(N)(=O)=O)cc3C)o2)c1,-2.7
CCC(=O)NCC(=O)NC1COCC1Cc1ccnc2ccccc12 (stereo not given),-1.9
CCc1ccc2oc(C(=O)Nc3sc4c(c3C(=O)NC)CCCC4)cc(=O)c2c1,-1.1
CCCNC(=O)CCNS(=O)(=O)c1ccc2c(c1)c(=O)n(C)c(=O)n2C,-0.7

# Three compounds from above, ordered by number of heavy atoms, ascending:
SMILES,fixLJ activator
C=CCc1cc(-c2nccn2Cc2cccnc2)cc(OC)c1O,-1.4
CCCCNC(=O)CSc1nc(-c2ccc(OC)cc2)cc(C(F)(F)F)n1,-0.36
CCOC(=O)C1CCN(C(=O)Cn2nc(C)n3c(cc4cc(C)ccc43)c2=O)CC1,-1.4

# From PubChem
